Bioassay records as filed in PubChem.
VACV Venus inh: qHTS for Stage-Specific Inhibitors of Vaccinia Orthopoxvirus: Venus Reporter Primary qHTS | Vaccinia virus Venus reporter expression, fluorescence | Potency, µM (titrated, usually from 36.5 µM), inactives show at the top dose activity change, negative = inhibition, actives largely listed as inhibitors | 0.46% of 330,000 active | AID 720580, 2013; active means well fitted inhibition curve with a large enough effect; inconclusive means small, poorly fitted or top-dose-only effect; inactive means no such curve, though single readings can be large or run the other way; tested in A549 cells; note: nearly all actives have a fitted effect of over 30% in size; inactives centre near -10
Vaccinia mCherry: qHTS for Stage-Specific Inhibitors of Vaccinia Orthopoxvirus: mCherry Reporter Primary qHTS; Vaccinia virus mCherry reporter infection, fluorescence; about a quarter of the inactives have no number; Potency, µM (titrated, usually from 36.5 µM), for inactives: top-dose activity change, negative = inhibition, most hits filed as inhibitors; 0.63% of 310,000 active; AID 720579, 2013; active = well fitted inhibition curve with a large enough effect; inconclusive = small, poorly fitted or top-dose-only effect; inactive = no such curve, though single readings can be large or run the other way; tested in A549 cells; note: nearly all actives have a fitted effect of over 35% in size; inactives centre near -10
Numbers without * were called inactive; i = inactive; ? = inconclusive; · = not tested or not shown; [ ] = dose if it differs, or a comment. % is set by controls: 0 for no effect and ±100 for the full control effect; potency is the fitted concentration of half-maximal effect.

SMILES	VACV Venus inh	Vaccinia mCherry
O=C(NC1CCCCC1)C(c1ccccn1)N(C(=O)c1csnn1)c1ccccc1F (stereo not given)	-1%	-10%
Cc1c(CNCc2ccc(Cl)cc2)c(C(=O)O)c(C)n1Cc1ccc(F)cc1	3%	-5%
COC(=O)[C@@]12C[C@@H](CC(=O)N3CCSCC3)C(=O)N(Cc3ccco3)C1=CCC(C)(C)C2	2%	-18%
O=C(c1ccoc1)N1CCN(c2cc(-c3cccnc3)nc3cc(-c4cccc(Cl)c4)nn23)CC1	?	?
NC(=O)c1cc(S(=O)(=O)NCc2cccc(Br)c2)cs1	-6%	-14%
Cc1cc(C)n2nc(SCCC(=O)NCCc3ccccc3)nc2n1	-4%	-6%
Cc1cc(NC(=O)C2CCCCC2)nc2c1c(=O)oc1ccccc12	-10%	20%
Cc1nn(-c2ccccc2)c(NC(=O)c2cccs2)c(-c2ccc(Cl)cc2)c1=O	-8%	-10%
Cc1nc2cc(NCc3cccs3)ccc2n1C	-7%	i
N#CC1(c2ccccc2)CCCN1C(=O)c1ccccc1Br (stereo not given)	1%	·
CCCCCn1nc(C)c(/C=N/NC(=O)c2ccoc2C)c1C	-2%	-14%
COc1ccccc1NC(=O)CS(=O)(=O)c1cn(CC(=O)N(C(C)C)C(C)C)c2ccccc12	-8%	-16%
S=c1[nH]nc(Cc2cccc3ccccc23)n1-c1ccccc1	-14%	-22%
Cn1c(=O)n(C)c2cc(S(=O)(=O)NCCc3ccccc3)ccc21	-14%	-14%
CC(C)CC(OC(=O)c1ccc(Cl)nc1)C(=O)NC1CCCC1 (stereo not given)	-5%	-17%
O=C(CSc1ccc([N+](=O)[O-])cc1)Nc1cccc(S(=O)(=O)N2CCOCC2)c1	-16%	-4%
CCOc1cc(CNc2ccccc2)cc(Br)c1OCc1ccc(F)cc1	13%	8%
Cc1ccc(/C=C2\CCC(C3CCCC3)C2=O)cc1 (stereo not given)	-4%	-8%
COc1ccc(-c2ccc(C(=O)NCc3ccc(N4CCN(C)CC4)cc3)c3occc23)c(C)c1	-21%	-6%
COc1ccc(S(=O)(=O)n2oc(=O)cc2-c2ccccc2)cc1OC	?	-14%
NC(=O)C1(c2ccccc2)CCCN1C(=O)c1ccc(Br)cc1 (stereo not given)	-12%	-1%
Cc1ccccc1OCc1nc2ccccc2c(=O)n1/N=C/c1cccc([N+](=O)[O-])c1	-6%	-16%
CS(=O)(=O)N1CCC(Oc2ccccc2C(=O)N2CCNC(=O)C2)CC1	-9%	i
O=C(NCCc1ccc(Cl)cc1Cl)c1cccnc1	-13%	i
O=C(CSc1nc(-c2ccco2)cc(C(F)(F)F)n1)NC1CCCC1	-8%	-24%
O=C(O)CC(NC(=O)Cc1ccccc1)c1cc([N+](=O)[O-])ccc1Cl (stereo not given)	-13%	i
N#Cc1ccc(-n2nnc3ccccc3c2=O)c([N+](=O)[O-])c1	-2%	-6%
CCCCC(=O)NC(c1ccccc1Cl)c1c(O)ccc2ccccc12 (stereo not given)	-27%	?
O=C(NC1CCCC1)C1CCCN(S(=O)(=O)c2cccc3cccnc23)C1 (stereo not given)	-15%	-9%
CC(NC(=O)C1CCN(C(=O)N2CCOc3ccccc32)CC1)c1ccccc1 (stereo not given)	-6%	-9%
COc1cc(Cl)c(CN2CCCC(CO)(Cc3ccccc3F)C2)cc1OC (stereo not given)	-29%	-27%
Cc1ccc(Cn2c(=O)c3c(nc4n3CCN4Cc3ccco3)n(C)c2=O)cc1	-16%	-10%
O=C(OCC(=O)N1CCCCC1)c1cc2ccccc2cc1O	-10%	·
CC1CCN(S(=O)(=O)c2nnc(NC(=O)c3cccc(F)c3)s2)CC1	-17%	-14%
CCCCCCOC(=O)C1=C(C)NC(=O)NC1c1ccc(O)cc1 (stereo not given)	-28%	·
Cc1cc(C)n2nc(SCC(=O)c3cc(C)n(CC4CCCO4)c3C)nc2n1 (stereo not given)	-18%	-22%
Cc1c(N2C(=O)/C(=C/c3ccc(N(C)C)cc3)N(C)C2=S)c(=O)n(-c2ccccc2)n1C	283%[activator]	-15%
CCCC(C)NC(=O)COC(=O)c1ccc(Cl)c(S(N)(=O)=O)c1 (stereo not given)	-5%	·
COc1ccc(-c2c([C@H]3[C@H]4C=CC[C@@H](C)[C@@H]4C(=O)N3Cc3ccccc3)ccc3ccccc23)cc1	?	?
COc1ccc(N2CCN(CC(=O)N3N=CCC3c3ccccc3)CC2)cc1 (stereo not given)	-2%	-1%
O=C(NNc1cc(Cl)ccc1Cl)c1c(F)cccc1Cl	-9%	-16%
CC(=O)Nc1ccc(SCCC2CCCCN2C)cc1 (stereo not given)	-7%	3%
CCCCCCCN1C(Nc2ccccc2)=NC[C@@H]1C	-27%	?
COc1ccc(CNC(=O)CN2c3ccccc3S(=O)(=O)c3ccccc32)cc1	3%[7.34 µM]	i[7.34 µM]
CCc1cc2ccc(OC)cc2nc1SCC(=O)NNC(=O)c1ccco1	-10%	i
COCc1c(C(=O)N2CCN(C3CCCC3)CC2)cnn1-c1nccc(-c2cc(C)sc2C)n1	-10%	-12%
CCn1c(CNC(=O)c2ccc3c(c2)OCO3)nnc1SCC(=O)Nc1ccccc1F	-12%	-13%
COc1ccc(OCCCn2ccnc2)cc1	-7%	-12%

Whole records, looked up by structure.
Listed for COc1ccc(-c2c([C@H]3[C@H]4C=CC[C@@H](C)[C@@H]4C(=O)N3Cc3ccccc3)ccc3ccccc23)cc1 : VACV Venus inh: ?; Vaccinia mCherry: ?
Listed for COc1ccc(CNC(=O)CN2c3ccccc3S(=O)(=O)c3ccccc32)cc1 : VACV Venus inh: 3%[7.34 µM]; Vaccinia mCherry: i[7.34 µM]

Continued.
SMILES	VACV Venus inh	Vaccinia mCherry
C/C(Cc1ccccc1)=N\NC(=O)CNC(=O)Cc1ccc(Cl)cc1	-15%	i
COc1cccc(NC(=O)c2nnn(Cc3cccc(C(F)(F)F)c3)c2N)c1	-6%	-9%
O=C(COC(=O)C1CC1)Nc1ncc(Cl)cc1Cl	3%	-1%
COc1ccc(C(=O)N2CCNC(=O)C2CC(=O)Nc2cccc(Cl)c2Cl)cc1 (stereo not given)	-7%	0%
O=C(NCc1cccc(Cl)c1)C1CCC(=O)N(CC2CCCCC2)C1 (stereo not given)	-16%	-5%
CCOC(=O)C1=C(O)C(=O)C(C(=O)OCC)C1 (stereo not given)	-2%	-13%
COc1ccc(NC(=S)N2CCC3CC2c2c(Cl)cccc23)c(OC)c1 (stereo not given)	-11%	-23%
N#Cc1nc(-c2ccc(COc3ccc(Cl)cc3)o2)oc1N1CCC(C(N)=O)CC1	-24%	-27%
COc1ccc(-n2c(Cc3cc(=O)[nH]c(=O)[nH]3)nnc2SCC(=O)NC2CCCC2)cc1	3%	1%
COc1ccc(OC)c(NC(=O)CS(=O)(=O)c2cn(CC(=O)N3CCOCC3)c3ccccc23)c1	-6%	-10%
COC(=O)C1=C(c2cccc(C#N)c2)C[C@@H]2CC[C@H]1N2C(=O)NCc1ccco1	-2%	-14%
C=CCn1c(O)c(N=NC(=O)CNC(=O)/C=C/c2ccco2)c2ccccc21	6%	-8%
O/N=C(\COc1ccccc1O)c1ccccc1	-2%	-12%
Cn1c(=O)[nH]c(=O)c2c1nc(Br)n2CCCCSc1nc2ccccc2o1	-16%	-23%
O=C(Nc1ccccc1C(=O)NCc1ccc(Cl)cc1)c1ccco1	-21%	-16%
COc1ccc(OC)c(NC(=O)C(=O)NNC(=O)COc2ccc(Br)cc2C)c1	-13%	-10%
O=C1CCCC(O)=C1N=Nc1c(Cl)cc(Cl)cc1Cl	36%[activator]	34%[activator]
N/C(COc1ccc(F)cc1)=N\NC(=O)c1cccnc1Oc1ccccc1	-4%	-6%
Cc1ccc(C(=O)N2CC3(C(C)C)CN(C(=O)c4ccc(C)cc4)CC(C(C)C)(C2)C3=O)cc1	-13%	i
O=C1CCC(C(=O)Nc2cccc3ccccc23)N1 (stereo not given)	-1%	-6%
COC(=O)C1=C(C)NC(=O)NC1c1ccc(-c2ccc(Cl)cc2)o1 (stereo not given)	-16%	-5%
Cn1c(=O)[nH]c(=O)c2c1nc(N1CCCCCC1)n2CCOc1ccccc1	-10%	i
COC(=O)c1[nH]c2cc(OC)ccc2c1NC(=O)CN1CCN(c2cccc(C)c2)C(C)C1 (stereo not given)	?	?
C=CCn1c(SCC(=O)Nc2c(C)n(C)n(-c3ccccc3)c2=O)nnc1-c1cccnc1	-11%	-1%
COc1ccc(C2=Nc3ccccc3OC2)cc1	?	?
Cn1c2ccccc2c(=O)c2c(=O)n(Cc3ccco3)c(COc3ccccc3)nc21	-10%	-19%
CCCCNS(=O)(=O)c1ccc(NC(=O)c2c(-c3ccccc3Cl)noc2C)cc1	-20%	-30%
O=S(=O)(/N=C(/c1ccccc1Cl)N1CCOCC1)c1ccccc1	-16%	-11%
CCC(C)OC(=O)C1=C(C)NC(=O)CC1c1ccccc1OC (stereo not given)	?	·
CCCCC1Cc2[nH]c(=S)[nH]c(=O)c2C(c2ccc(Cl)cc2)O1 (stereo not given)	-9%	1%
COC(=O)C1=C(C(=O)OC)C2c3ccccc3C1c1ccccc12	-6%	-23%
CCOCCCNC(=O)C(c1ccc(OC)cc1)N(Cc1ccc2c(c1)OCO2)C(=O)c1ccc(NC(C)=O)cc1 (stereo not given)	-12%	-9%
Cc1onc(-c2c(F)cccc2Cl)c1C(=O)NNC(=O)C1CCN(Cc2cccc(F)c2)CC1	-4%	-12%
CCCc1nc2cc(C)c(Br)c(C)n2c1CC1CCCCC1	-3%	10%
CCOC(=O)c1cccc(C2=C(CNC(=O)c3cccnc3)[C@H]3CC[C@@H](C2)N3Cc2ccccc2)c1	-12%	i
Cc1ccc(Cl)cc1N1CCN(S(=O)(=O)c2ccc(-c3cnc(C4CC4)o3)cc2)CC1	-8%	-25%

Compounds listed so far with a thiophene ring, fused or not, in the order listed:
SMILES	VACV Venus inh	Vaccinia mCherry
NC(=O)c1cc(S(=O)(=O)NCc2cccc(Br)c2)cs1	-6%	-14%
Cc1nn(-c2ccccc2)c(NC(=O)c2cccs2)c(-c2ccc(Cl)cc2)c1=O	-8%	-10%
Cc1nc2cc(NCc3cccs3)ccc2n1C	-7%	i
COCc1c(C(=O)N2CCN(C3CCCC3)CC2)cnn1-c1nccc(-c2cc(C)sc2C)n1	-10%	-12%

(more compounds)
SMILES	VACV Venus inh	Vaccinia mCherry
O=C(Nc1ccc(F)cc1)Nc1nnc(Cc2ccccc2F)s1	-8%	-15%
Cc1nnc(N/N=C/C(C)c2ccccc2)[nH]c1=O (stereo not given)	-8%	?
CCCOc1ccc(C2C(C(=O)/C=C/c3ccco3)=C(O)C(=O)N2CCN2CCOCC2)cc1OC (stereo not given)	3%	-1%
O=C(/C=C/[C@H]1O[C@@H](n2ccc(=O)[nH]c2=O)[C@H](O)[C@@H]1O)NCCN1CCCCC1	-6%	6%
COc1cccc(Cc2nc3ccccc3nc2SCC(=O)Nc2cc(OC)ccc2OC)c1	-6%	-17%
O=C(Nc1cccc(F)c1)NC1(C(=O)N2CCOCC2)CCCCC1	11%	0%
COc1ccc(S(=O)(=O)c2cn(CC(=O)Nc3cc(C)ccc3C)c3ccccc3c2=O)cc1	6%	3%
CC1(C(=O)NCCc2c[nH]c3ccccc23)C=CC2(CCCCC2)N1C(=O)c1ccccc1 (stereo not given)	-22%	-5%
CN(Cc1cccc2ccccc12)C(=O)c1cc(COc2c(F)cccc2F)on1	-1%	i
Cc1oc(-c2ccccc2F)nc1CSCC(=O)NCCc1ccccc1	-1%	5%
COc1ccccc1C(NC(=O)C1CCN(CCOc2ccc3ccccc3c2)CC1)c1ccccn1 (stereo not given)	?	-18%
O=C(O)C1=C[C@@H](c2ccc(Br)cc2)C[C@@H](OCc2ccc(CO)cc2)O1	-8%	-14%

The list goes on, overlapping the part above by 3 compounds.
SMILES	VACV Venus inh	Vaccinia mCherry
Cc1oc(-c2ccccc2F)nc1CSCC(=O)NCCc1ccccc1	-1%	5%
COc1ccccc1C(NC(=O)C1CCN(CCOc2ccc3ccccc3c2)CC1)c1ccccn1 (stereo not given)	?	-18%
O=C(O)C1=C[C@@H](c2ccc(Br)cc2)C[C@@H](OCc2ccc(CO)cc2)O1	-8%	-14%
O=C(CSc1nc2ncc(Br)cc2[nH]1)Nc1ccc2c(c1)OCO2	?	·
COc1ccc(F)cc1S(=O)(=O)NCCc1c(C)[nH]c2c(Cl)cccc12	-13%	-8%
Cc1cccc(Cl)c1NC(=S)N1CCN(c2ccc([N+](=O)[O-])cn2)CC1	-25%	0%
CCCCC1C(=O)CC[C@H]2[C@@H]1CC(=O)[C@@H]2C/C=C\CCCC(=O)O (stereo not given in full)	-11%	0%
Cc1ccc2occ(C3NC(C(=O)O)CS3)c(=O)c2c1 (stereo not given)	-3%	0%
CC(CCCC(C)(C)O)NCc1cn[nH]c1-c1ccc2c(c1)OCO2 (stereo not given)	?	-2%
CCOC(=O)CC(=O)Nc1nc2ccccc2s1	-15%	·
CC(C)C(=O)NCCSc1c[nH]c2ccccc12	1%	i
COc1cc(C(O)c2nc(-c3ccc(N(C)C)cc3)cs2)ccc1F (stereo not given)	-28%	?
Cc1cc([N+](=O)[O-])nn1CC(=O)N1N=C(C(F)F)CC1(O)C(F)F (stereo not given)	-2%	-27%
O=C(NCCCO)C(=O)NCC1OCCCN1S(=O)(=O)c1cccs1 (stereo not given)	-5%	-6%
Cc1cc(NC(=O)C2CCCN(S(=O)(=O)c3cccc4nonc34)C2)ccc1Br (stereo not given)	-18%[7.34 µM]	-16%[7.34 µM]
CCCCNCc1cc(Cl)c(OCCC)c(OCC)c1	-13%	?
